# AID504770 = growth inhibitors of E. coli YBA685 in a screen for V. cholerae RctB (chromosome II replication) inhibitors; hit rate 0.27% among 130,000; E. coli YBA685 rctB-dependent plasmid, OD600 growth, 3 h; active compounds read low; z-score (no concentration beside the values); AID 504770;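 active = z-score under -2 on both plates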;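 note: wells of about 30 µL received 100 nL stock; score is relative to mean and SD of the test wells; the first replicate is given; strong numbers were not always called active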
# CapD inh = CapD enzyme inhibition | purified CapD enzyme, fluorescence intensity read-out; active compounds read low; some hits fall short of the stated cut | AID 492967 | z-score (test concentration not listed) | hit rate 0.23% among 140,000;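 active = z-score under -4 in either of two replicates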;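 note: stock transfer was 100 nL into about 40 µL; score is relative to mean and spread of the plate; one replicate is shown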
# Active calls of the source: *; i = inactive; · = no result given; & = joins results of further samples.
SMILES	AID504770	CapD inh
N#C/C(=C\c1ccc(-c2ccc(S(N)(=O)=O)cc2)o1)c1ccc(Cl)cc1	0.35	13
CN(Cc1ccccc1)S(=O)(=O)c1ccc(F)cc1	-0.3	0.21
COn1c(=O)c(-c2ccc(I)cc2)[n+]([O-])c2ccccc21	1.1	-0.24
Cn1c(Cc2nnc3n2-c2ccccc2SC3)nc2ccccc21	0.25	·
Cc1ccc(S(=O)(=O)NC(=O)N(C)c2ccccc2)cc1	0.25	·
COc1cc(/C=c2\sc3nc(-c4ccccc4OC(C)=O)nn3c2=O)ccc1OCCC(C)C	·	-0.43
COC(=O)c1csc2c(C(F)(F)F)cc(N3CCN(C(=S)Nc4cc(C(F)(F)F)cc(C(F)(F)F)c4)CC3)nc12	·	6.7
Cn1c(=O)c(C(=O)CN2CCCCC2)c(N)n(Cc2ccccc2)c1=O	0.15	·
CCN(CC)C(=O)CSc1nc2ccccc2n1C(=O)OCC(C)C	·	0.46
Cc1c(C(=O)NC2=NCCS2)sc2nc3n(c(=O)c12)CCCCC3	-0.75	·
CC(O)C(Nc1ncnc2ccccc12)C(=O)O (stereo not drawn)	-0.55	0.3
CCN(CC)c1nc2c3c(nc4c(c3c1C#N)CC(=O)N4c1cc(Cl)cc(Cl)c1)NC(C)=N2	0.3	·
CC1(C)CCc2cc(CN3CCN(c4ccccn4)CC3)ccc2O1	0.2	0.29
Cc1cc(=O)[nH]c(SCC(=O)c2cccs2)n1	-0.05	-0.21
CCOc1cc(C2C(C(=O)OC(C)C)=C(C)NC3=C2C(=O)CC(c2cccs2)C3)cc([N+](=O)[O-])c1O (stereo not drawn)	·	-0.19
O=C(NC1CCN(Cc2ccccc2)CC1)c1ccccc1Br	·	0.66

# Part of the list above, as labelled records:
Molecule: CCN(CC)c1nc2c3c(nc4c(c3c1C#N)CC(=O)N4c1cc(Cl)cc(Cl)c1)NC(C)=N2
- AID504770: 0.3
- CapD inh: ·
Molecule: CC1(C)CCc2cc(CN3CCN(c4ccccn4)CC3)ccc2O1
- AID504770: 0.2
- CapD inh: 0.29
Molecule: Cc1cc(=O)[nH]c(SCC(=O)c2cccs2)n1
- AID504770: -0.05
- CapD inh: -0.21
Molecule: CCOc1cc(C2C(C(=O)OC(C)C)=C(C)NC3=C2C(=O)CC(c2cccs2)C3)cc([N+](=O)[O-])c1O (stereo not drawn)
- AID504770: ·
- CapD inh: -0.19

# Continued.
SMILES	AID504770	CapD inh
COc1ccc(-c2c3c(=O)n(C)c(=O)n(C)c3c3n2C(C)(C)COC3)cc1	-0.55	1.3
CCN(CC)S(=O)(=O)c1cccc(C(=O)OCN2C(=O)c3ccccc3C2=O)c1	1.2	·
O=S(=O)(NC1CCCCCC1)c1ccccc1	0.35	·
COc1ccc(-c2nn3c(C)nnc3s2)cc1OC	-0.65	5.5
CSc1nc(CSc2nnc(-c3ccccc3)n2-c2ccc(Cl)cc2)cc(=O)[nH]1	-0.85	·
COc1ccc(NC(=O)CSc2nnc(C)n2-c2ccccc2)cc1	-0.9	-0.62
O=C(c1ccc2c(c1)N(Cc1ccc(F)cc1)C(=O)c1ccccc1S2=O)N1CCN(c2ccccc2)CC1 (stereo not drawn)	-0.65	-0.65
COC(=O)c1cc(S(=O)(=O)Nc2nn(C)c3cccc(F)c23)oc1C	1.9	-0.055
Cc1cccc(NC(=O)Cn2c(=O)n(CCCC(=O)NCc3ccc4c(c3)OCO4)c(=O)c3ccccc32)c1	-0.1	0.11
CCCCCCC(=O)Nc1cccc(C(=O)N/N=C/c2ccc(OC)cc2)c1	·	0.79
CCCCN(Cc1nnc(-c2ccccc2)o1)c1ccccc1	-0.45	-0.52
O=C(CSc1nnc(CNC(=O)c2ccccc2F)o1)Nc1ccc(F)cc1F	-0.7	-0.12
COc1ccc(Cl)cc1S(=O)(=O)NCCN1CCOCC1	0.35	-0.19
CCOc1cc(C2C(C(=O)OC(C)CC)=C(C)NC3=C2C(=O)CC(c2ccc(OC)cc2)C3)ccc1OC(C)=O (stereo not drawn)	·	18
COCc1[nH]nc2c1C(c1ccc(OCC(N)=O)c(OC)c1)C(C#N)=C(N)O2 (stereo not drawn)	-0.1	-0.09
CCCCN(C)c1nnc(NC(=O)Nc2cccc(C)c2)s1	0.8	1.1
CC(NCCCO)c1ccccn1 (stereo not drawn)	-0.85	·
CN(C)/C=C/C(=O)c1ccco1	-0.3	-4.4*
O=C(O)CC(c1ccsc1)n1cccc1 (stereo not drawn)	0.05	0.17
CC1Oc2ccccc2N(CC(=O)O)C1=O (stereo not drawn)	0.05	0.45
Cc1cccc(Cl)c1S(=O)(=O)NCc1cc(-c2ccc(Cl)cc2)no1	·	-0.74
COCCN1C(=O)c2ccccc2C(C(=O)NCCCN2CCC(C)CC2)C1c1ccc(F)cc1 (stereo not drawn)	·	-1.5
Cc1cc2cc(CNS(=O)(=O)c3ccccc3)ccc2n1C	-0.35	58
O=C(CSc1nc2ccccc2o1)NCc1ccc(F)cc1	0.05	·
COc1cc(C2C(C#N)=C(N)OC3=C2C(=O)CC(c2ccco2)C3)ccc1OC(=O)N1CCOCC1 (stereo not drawn)	·	-0.51
COC(=O)c1cc2nc(C)cc(C(F)(F)F)n2n1	-0.7	·
Cc1ccc(CN2C(=O)/C(=N\OC(=O)CC(C)C)c3ccccc32)cc1	·	-0.43
Cc1cc2nc3c(=O)[nH]c(=O)[nH]c3nc2cc1N	·	-0.57
COC(=O)c1cc(CSc2cccc[n+]2[O-])oc1C	0.65	·
CCOC(=O)Nc1cc(OC)c(OC)cc1C(=O)OC	·	42
N#CC1=C(N)C(C#N)(C#N)C(c2cccs2)C=C1C1CC1 (stereo not drawn)	-0.95	·
COc1cccc(C(=O)NCCc2cc3ccc(OC)cc3[nH]c2=O)c1	-0.85	·
O=C(CSc1nc2c([nH]c3ccccc32)c(=O)n1-c1ccccc1)Nc1ccccc1	0.75	0.28
O=C(c1ccccc1)c1ccc2[nH]c(=O)c(=O)[nH]c2c1	0.15	-0.12
Cc1cn(C2OC(COC(=O)c3ccccc3)C(O)C2O)c(=O)[nH]c1=O (stereo not drawn)	-0.85	·
COC(=O)CC(=O)CSc1nc(C)cc(C)c1C#N	-0.45	·
COc1cc(C2(C)SCc3cc(C)c(C)cc3CS2)ccc1O	·	-0.55
NC(=O)C1CCN(C(=O)c2ccc3c(=O)n(Cc4ccco4)c(SCC(=O)c4ccc(F)cc4)nc3c2)CC1	·	-0.17
O=c1[nH]/c(=C/c2ccco2)c(=O)[nH]/c1=C\c1ccco1	-0.4	-0.03
COc1ccc2oc(C(=O)N(C)Cc3nc4ccccc4c(=O)[nH]3)c(C)c2c1	-0.1	·
COc1cc(-c2nc3ccccc3c(=O)n2CCN2CCOCC2)cc(OC)c1OC	·	5.1
CC(COC(=O)N1CCCN(c2nc3ccc(Cl)cc3s2)CC1)c1ccccc1 (stereo not drawn)	·	-0.96
O=C(COC(=O)c1ccc(Oc2ccccc2)cc1)Nc1ncccn1	-0.85	·
CC(=O)Nc1ccc(C(=O)OCC(N)=O)cc1	1.1	·
CCOc1ccc(C2C(N3C(=O)c4c(Cl)c(Cl)c(Cl)c(Cl)c4C3=O)C(=O)N2c2ccc(C)cc2Br)cc1 (stereo not drawn)	·	-0.11
Cc1c(NC(=O)/C(C#N)=C/c2ccc(C(C)(C)C)cc2)c(=O)n(-c2ccccc2)n1C	·	-0.35
Cc1ccccc1NC1=NCCCS1	0.3	-1.3
CSc1sccc1/C=N/O	-1.6	0.17

# Sorted by length of the SMILES (lowest first): three of the compounds above.
SMILES	AID504770	CapD inh
CSc1sccc1/C=N/O	-1.6	0.17
O=C(COC(=O)c1ccc(Oc2ccccc2)cc1)Nc1ncccn1	-0.85	·
CC(COC(=O)N1CCCN(c2nc3ccc(Cl)cc3s2)CC1)c1ccccc1 (stereo not drawn)	·	-0.96

# More results.
SMILES	AID504770	CapD inh
CN1/C(=C/C=C/C=C/C=[N+](C)c2ccccc2)C(C)(C)c2ccccc21	·	-0.79
Cc1ccccc1-c1noc(COC(=O)CNC(=O)c2ccc(Cl)c(Cl)c2)n1	0.25	·
CC1CCc2c(sc(NC(=O)c3cc4nc(-c5ccco5)cc(C(F)(F)F)n4n3)c2C(N)=O)C1 (stereo not drawn)	·	-0.28
NS(=O)(=O)c1ccc(CNS(=O)(=O)c2cccc3nsnc23)cc1	·	-0.76
COc1cc([C@@H]2[C@H]3CN(C)CC=C3C(C#N)=C(N)C2(C#N)C#N)ccc1OC(C)C	·	0.13
CCNc1ccc2noc3c2c1C(=O)c1ccccc1-3	5.5	·
CCOc1ccc(NC(=O)C2CCCN2c2nnc(N3CCCC3=O)s2)cc1 (stereo not drawn)	0.95	-1.5
Cc1cc(NC(=O)C2=C(O)c3ccccc3S(=O)(=O)N2C)no1	0.1	-0.085&31

# (cont.)
# Sequence of screens: AID504770	CapD inh
- CCc1cc(CC)c(CO)c(CC)c1/C=N/O
    1.6	-0.07
- O=c1c2c3c(sc2nc2n1CCCCC2)C(O)CCC3 (stereo not drawn)
    -0.25	·
- Cc1c(Cl)cccc1NC(=O)CCN1CCC(C(N)=O)CC1
    -0.85	·
- CCCC(=O)Nc1nc2ccccc2s1
    0.05	i
- COc1ccccc1NC(=O)Cn1cnc2sc(C(=O)N3c4ccc(F)cc4CCC3C)c(C)c2c1=O (stereo not drawn)
    ·	-0.16
- CS(=O)(=O)N1CCN(CC(O)Cn2c3ccc(Cl)cc3c3cc(Cl)ccc32)CC1 (stereo not drawn)
    0.35	0.54
- COC(=O)C(C)Oc1ccc(-c2nccc(-c3ccc(F)cc3)n2)cc1 (stereo not drawn)
    ·	0.65
- CCC(C)NC(=O)C1c2ccccc2C(=O)N(C)C1c1c[nH]c2ccccc12 (stereo not drawn)
    -1.4	0.71
- CSC(=NCc1sccc1COc1ccc(Cl)cc1)NC#N
    1.7	-0.59
- O=c1[nH]c2ccccc2nc1CCc1ccccc1
    0.8	·
- CC(C)N1C(=O)C(O)(CC(=O)c2ccccc2Br)c2ccccc21 (stereo not drawn)
    -0.7	-0.27
- CC(=O)N(C)c1ccc(N=C2C(=O)Nc3ccc(C)c(Br)c32)cc1
    -0.4	0.28
- CCCN(CCC)C(=O)CCc1c(C)nc2c(c(C)nn2-c2ccc(C)cc2)c1C
    1.1	20
- CC(=O)OCc1c(C)ccc(C2C(C#N)=C(N)OC(N)=C2C#N)c1C
    ·	9.9
- COc1ccc(/C=C/C(=O)Nc2c3c(nc4c2CCC4)CCCC3)cc1OC
    -0.55	0.33
- Cn1c(CN2CCOCC2)nc2cc(NS(=O)(=O)c3ccc(F)cc3)ccc21
    -0.15	-0.16
- CSc1cccc(NC(=O)c2cccc(CS(C)(=O)=O)c2)c1
    0.5	·
- CCN1C(=O)/C(=C\c2cccs2)SC1=Nc1cc(C)on1
    1.1	·
- CC1=CC(=C2C(=O)NC(=O)NC2=O)C=C(C)N1c1ccccc1
    0.35	·
- CC(=NCc1ccccc1)c1sc2ccccc2c1O
    0.7	-1.8
- Cc1cccc2c1NC(C)(C)c1ssc(=Nc3cccc(Cl)c3C)c1-2
    ·	0.025
- Cc1ccc(N2COc3cc4c(cc3C2)OCO4)cc1C
    1.5	0.7
- O=C(c1cn(-c2ccccc2)nc1-c1cccnc1)N1CCOCC1
    0.15	-0.12
- CSc1cccc(NC(=O)/C=C/c2ccccc2)c1
    1.2	-1
- CC(Oc1ccc(Br)cc1)C(=O)N1CCCCC1 (stereo not drawn)
    -0.5	0.66
- Cc1nn(-c2ccc3nnc(C)n3n2)c(C)c1CCC(=O)O
    -0.35	-0.15
- Cc1cc(SCC(=O)N(C)C)nc2ccccc12
    -0.65	·
- Cc1nc(C(=O)Nc2ccc(F)cc2)nn1-c1cc(Cl)cc(Cl)c1
    ·	0.23
- Clc1ccccc1CN1CCN(c2cccc3[nH]ccc23)CC1
    1.7	-0.025
- COc1ccc(NC(=O)c2cc3nc(-c4cccs4)cc(C(F)(F)F)n3n2)c(OC)c1
    ·	-0.15
- CC1=NN(c2nc3ccccc3[nH]2)C(=O)C1CCC(C)C (stereo not drawn)
    2.5	0.21
- CCc1ccc(NC(=O)CN(C)S(=O)(=O)c2cccc3nsnc23)cc1
    -0.5	-0.72
- O=C(Nc1ccc(C(F)(F)F)cc1)C1CCC1
    -0.9	0.3
- Cc1c(CCC#N)c(=O)n2c([nH]c3ccccc32)c1C#N
    -0.05	54
- O=C(c1cc2nc(-c3ccccc3)cc(-c3ccccc3)n2n1)N1CCCC1
    -0.1	·
- COC(=O)Nc1nc2cc3c(cc2s1)OCCO3
    ·	-0.09
- CCN(C(=O)Nc1cn(C)c(=O)c2ccccc12)c1ccccc1
    0.25	64
- Cc1ccc2oc(=O)n(CC(=O)c3ccc(F)cc3)c2c1
    0.25	0.12
- Cc1ccccc1OC1C(=O)N(C2CCCC2)C1c1ccc2c(c1)OCO2 (stereo not drawn)
    -0.8	-0.24
- O=C(c1cc(-c2ccco2)on1)N1CCCc2ccccc21
    -0.8	-0.24
- Cc1cccc(-c2nnc3sc(NC(=O)CC(C)C)nn23)c1
    -0.7	0.21
- CC(O)CN1CC2CC(C1)c1cccc(=O)n1C2 (stereo not drawn)
    -0.95	-0.15
- CC1CCN(C(=O)c2cc(-c3ccncc3)nc3ccccc23)CC1
    0.15	·
- NNC(=O)c1nsnc1-c1ccccc1O
    -1.4	·
- CCOC(=O)CN(C)S(=O)(=O)c1ccsc1C(=O)OC
    ·	-0.86
- O=C(Cc1cc(=O)[nH]c(=O)[nH]1)NCCN1CCOCC1
    2	·
- Cc1cc(C(=O)CSc2nnc(CN3CCCC3)o2)c(C)n1CCC(C)C
    0.55	·
- Cc1cc(C)c(C)c(S(=O)(=O)NCCc2cccs2)c1C
    ·	-0.83
- CCCOC1(NC(=O)c2ccccc2)C(C)=CC(=O)C=C1C
    -0.2	·
- O=C(CSc1nnc2c(n1)-c1cccc3cccc-2c13)N1CCOCC1
    ·	-0.23
- CC1CCCN(CC(=O)Nc2ccc(Cl)c(C(F)(F)F)c2)C1 (stereo not drawn)
    -0.7	·
